# Assay outcomes deposited in PubChem BioAssay by National Center for Advancing Translational Sciences (NCATS).
# VACV mCherry inh: inhibitors of vaccinia virus infection (mCherry reporter signal) | Vaccinia virus mCherry reporter infection, fluorescence; about a quarter of the inactives have no number | actives 0.63% (n = 310,000) | Potency, µM (top dose mostly 36.5 µM), for the others: top-dose activity change, negative = inhibition, most hits filed as inhibitors; active = well fitted inhibition curve with a large enough effect; inconclusive = small, poorly fitted or top-dose-only effect; inactive = no such curve, though single readings can be large or run the other way; tested in A549 cells; further: nearly all actives have a fitted effect of over 35% in size; inactives centre near -10
# VACV Venus inh: inhibitors of vaccinia virus (Venus reporter). Vaccinia virus Venus reporter expression, fluorescence. Potency, µM (highest dose often 36.5 µM), without a hit: at the top dose activity change, negative = inhibition, most hits filed as inhibitors. actives 0.46% (n = 330,000); active means well fitted inhibition curve with a large enough effect; inconclusive means small, poorly fitted or top-dose-only effect; inactive means no such curve, though single readings can be large or run the other way; tested in A549 cells; further: nearly all actives have a fitted effect of over 30% in size; inactives centre near -10
# * hit, by the source's call; i = inactive; ? = inconclusive; . = no result given; & = joins results of further samples; [ ] = dose if it differs, or a comment. On the % scale 0 is the no-effect control and ±100 the full control effect; potency means the concentration at half of the fitted maximal effect.
# Under each structure – VACV mCherry inh	VACV Venus inh
CN(Cc1cnn(-c2ccccc2)c1)C(=O)C1CCC(=O)N(C2CC2)C1 (stereo not given)
  -11%	0%
COc1ccc(C(=O)CCC(=O)Nc2cccc(C(C)=O)c2)cc1
  -5%	-4%
CCCCc1nc2sc3c(c2c(=O)[nH]1)CCC3
  -9%	-9%
COc1ccc(/C=N/NC(=O)c2nn(C)cc2Br)cc1CSCc1ccco1
  i	-16%
CCn1cnc2cc(NCc3ccc(C)cc3)ccc21
  i	-9%
CCOc1ccc(-n2c(=O)c3sc4ccccc4c3n(Cc3ccc(F)cc3)c2=O)cc1
  -17%	-5%
CCCOc1ccc(C(=O)Nc2c(C(=O)c3ccc(C)cc3)oc3ccccc23)cc1
  1%	2%
C=CCc1ccc(OCC(O)CN2CCCCC2)c(OC)c1 (stereo not given)
  -11%	-4%
COC(=O)C1=CN(Cc2ccc(OC)c(OC)c2)C=C(C(=O)OC)C1c1cccc(OC)c1OC
  i	-8%
COCCCN1C(=O)C(=O)/C(=C(/O)c2ccc(C)cc2)C1c1ccccc1 (stereo not given)
  .	-16%
COc1ccc(-c2cc(C(=O)Nc3c(Cl)cc(Cl)cc3Cl)c3ccccc3n2)cc1OC
  -9%	-4%
CCCN1CN(Cc2ccccc2)CNC1=S
  -3%	-5%
CCc1nc2ccc(C(=O)Nc3ccc(C(N)=O)cc3)cn2c1N(C)CCC(C)C
  ?	-27%
CNC(=O)C1CCCN(c2nnc(C)c3c(C)n(-c4ccccc4)nc23)C1 (stereo not given)
  -9%[7.34 µM]	-6%[7.34 µM]
COC(=O)C1CCN(C(=O)Cc2ccc(Br)cc2)CC1
  -5%	-3%
Cc1cc(C)n(C(=O)c2ccc(NC(=O)C3COc4ccccc4O3)cc2)n1 (stereo not given)
  .	-21%
O=[N+]([O-])c1cccc(/C=N/Nc2nccnc2Cl)c1
  i	-18%
COc1ccccc1Cc1c(C2CCCCC2)nc2cc(C)c(Br)c(C)n12
  -5%	-1%
COc1cccc(N/C(SCc2cccc([N+](=O)[O-])c2)=C(/C#N)C(=O)NCc2cccs2)c1
  -14%	-18%
Cc1cccc(NC(=O)NCCc2ccc(Cl)cc2)c1
  -23%	-13%

# In the list so far, these have a nitro group on carbon:
# Under each structure – VACV mCherry inh	VACV Venus inh
O=[N+]([O-])c1cccc(/C=N/Nc2nccnc2Cl)c1
  i	-18%
COc1cccc(N/C(SCc2cccc([N+](=O)[O-])c2)=C(/C#N)C(=O)NCc2cccs2)c1
  -14%	-18%

# Continuation:
# Under each structure – VACV mCherry inh	VACV Venus inh
O=C(CCC(=O)c1ccc(F)cc1)OC1CCOC1=O (stereo not given)
  .	7%
CN(C)C(=O)CCc1ccc2c3c([nH]c2c1)[C@]1(C)[C@@H](C(=O)N2CCOCC2)C[C@H](CC(=O)NCc2cccc(C(F)(F)F)c2)C(=O)N1CC3
  i	-22%
O=C(Oc1ccccc1)c1cc2ccccc2o1
  .	-1%
O=C(Nc1ccc(Cl)cc1)C1CCCN(S(=O)(=O)c2cnc[nH]2)C1 (stereo not given)
  7%	-6%
S=C(Nc1ccccc1)N1CCOCCOCCN(C(=S)Nc2ccccc2)CCOCCOCC1
  i	-19%
O=C(NC1CC(=O)N(c2ccccc2)C1)N1CCN(C(=O)c2ccco2)CC1 (stereo not given)
  -20%	-21%
COc1ccc(NC(=O)Nc2cccc3ccccc23)cc1S(N)(=O)=O
  -5%	1%
CCOC(=O)N1CCN(CCC(=O)Nc2ccc(C)c(Br)c2)CC1
  .	?
COc1ccc2c(c1)Cc1sc(NC(=O)c3ccc(Cl)cc3)nc1-2
  ?	?
CCCC(=O)N1CCC1(C)C(=O)NCc1ccc(C(C)C)cc1 (stereo not given)
  6%	-12%
CC(=O)c1ccc(NC(=O)c2cc(=O)[nH]c3ccccc23)cc1
  -5%	-1%
CCOC(=O)C1CCCN(c2ncnc3c2nnn3C)C1 (stereo not given)
  -1%	-4%
CCCCN1C(=O)C(=O)NC[C@@H]1CCCCN
  -13%	-7%
Cc1ccc(C(=O)NCCc2nnc3ccc(SCC(=O)Nc4c(C)cc(C)cc4C)nn23)cc1
  i	-26%
CCN(CC)S(=O)(=O)c1cccc(-c2n[nH]c(=S)n2C(C)COC)c1 (stereo not given)
  14%	1%
Cc1ccc(C=C2C(=O)c3ccccc3C2=O)o1
  i	-5%
CCOc1ccc(C(=O)c2c(N)c(-c3nc(-c4ccc5c(c4)OCO5)cs3)c3ccccn23)cc1
  0%	-8%
Cc1c(-n2cc(C(=O)O)c(=O)c3cc(F)c(N4CCCC(O)C4)c(F)c32)c(=O)n(-c2ccccc2)n1C (stereo not given)
  i	0%
CCCn1c(SCC(=O)Nc2ccc3c(c2)OCO3)n[nH]c1=O
  -2%	1%
CCN(CC(=O)NC1CCS(=O)(=O)C1)S(=O)(=O)c1ccccc1Cl (stereo not given)
  i	-1%

# 7 structures out of the list, arranged by formula weight, low to high:
# Under each structure – VACV mCherry inh	VACV Venus inh
COC(=O)C1CCN(C(=O)Cc2ccc(Br)cc2)CC1
  -5%	-3%
COc1ccc2c(c1)Cc1sc(NC(=O)c3ccc(Cl)cc3)nc1-2
  ?	?
O=C(Nc1ccc(Cl)cc1)C1CCCN(S(=O)(=O)c2cnc[nH]2)C1 (stereo not given)
  7%	-6%
CCN(CC)S(=O)(=O)c1cccc(-c2n[nH]c(=S)n2C(C)COC)c1 (stereo not given)
  14%	1%
CCOC(=O)N1CCN(CCC(=O)Nc2ccc(C)c(Br)c2)CC1
  .	?
CCOc1ccc(-n2c(=O)c3sc4ccccc4c3n(Cc3ccc(F)cc3)c2=O)cc1
  -17%	-5%
CCOc1ccc(C(=O)c2c(N)c(-c3nc(-c4ccc5c(c4)OCO5)cs3)c3ccccn23)cc1
  0%	-8%

# (cont.)
# Under each structure – VACV mCherry inh	VACV Venus inh
COc1ccc(CCn2c(NCc3ccco3)nc3c2c(=O)[nH]c(=O)n3C)cc1
  -3%	3%
CCc1ccccc1NC(=O)Nc1c(C)n(C)n(-c2ccccc2)c1=O
  -4%	-6%&-7%
CCc1ccccc1NC(=O)Cn1c(=O)n(CCCCCC(=O)NCc2ccc(C)cc2)c(=O)c2sccc21
  ?	?
CC(C)C[C@@H](CO)N1CCN(CC(C)C)CCC1=O
  -16%&-3%	-6%&-23%&-13%
O=C(O)CCC(=O)N1N=C(c2ccc(Br)cc2)CC1c1cccs1 (stereo not given)
  -13%	-8%
CCN(CC)C(=O)CSc1nc2cc3c(cc2c(=O)n1CCCCCC(=O)NCCc1ccc(OC)c(OC)c1)OCO3
  -18%	-14%
COc1ccc(Cc2c(C3CCCCC3)nc3cc(C)c(Br)c(C)n23)c(C)c1
  10%	2%
COc1ccccc1NC(=S)NNC(=O)c1ccc(O)cc1
  i	-6%
CCN=C1SC(CC(=O)Nc2ccc(C(F)(F)F)cc2)C(=O)N1CC (stereo not given)
  i	-29%
Cc1ccc(C)c(N(CC(=O)NN=C2CCCCCCC2)S(C)(=O)=O)c1
  .	-22%
O=C(NCc1ccccc1Cl)c1ccc2sc([C@@H]3O[C@H](CO)[C@H](O)[C@H](O)[C@H]3O)nc2c1
  7%	-8%
COc1ccc(Cl)cc1NC(=O)CN(C)C(=O)c1ccc(-n2cncn2)cc1
  i	0%
CC(C)(C)CC(=O)Nc1cccc2c1CCCC2
  -19%	-6%
C1=NCCc2c1[nH]c1ccccc21
  i[7.34 µM]	-17%[7.34 µM]
CCN(CC)c1ccc(/C=N/Nc2ccc(C)cc2)c(O)c1
  -19%	-1%
CCC1C(c2ccccc2)=CCC(C(=O)O)C1C (stereo not given)
  -9%	-3%
COC(=O)NCc1ccc(CNC(=O)OC)cc1
  11%[1.46 µM]	-5%
Fc1ccc(Nc2nnc(C(F)(F)F)s2)cc1Cl
  -19%	?
O=C(/C=C/c1ccc(OC(F)F)cc1)Nc1cccc(S(=O)(=O)NC2=NCCCCC2)c1
  ?	?
O=C(O)CC1(CC(=O)Nc2ccc(C(F)(F)F)cc2)CCCC1
  0%	-11%

# Whole records as entered above.
# COCCCN1C(=O)C(=O)/C(=C(/O)c2ccc(C)cc2)C1c1ccccc1 (stereo not given) is listed with VACV mCherry inh: .; VACV Venus inh: -16%
# CCCC(=O)N1CCC1(C)C(=O)NCc1ccc(C(C)C)cc1 (stereo not given) is listed with VACV mCherry inh: 6%; VACV Venus inh: -12%

# (listing goes on)
# Under each structure – VACV mCherry inh	VACV Venus inh
CSc1ccccc1NC(=O)C1(C)CCN1C(=O)Cc1ccccc1Cl (stereo not given)
  -1%	-1%
COc1cc(/C=c2\sc3n(c2=O)C(c2ccccc2)C(c2ccccc2)=NN=3)ccc1O (stereo not given)
  -33%	-20%
C#CCOCCOCCOCCNc1nc(N2CCN(C(=O)[C@H](CCC(=O)O)n3cc(C(N)Cc4ccc(O)cc4)nn3)CC2)nc(N2CCN(C(=O)[C@H](CCC(=O)O)n3cc(C(N)CC(C)C)nn3)CC2)n1 (stereo not given in full)
  i	-6%
Cc1ccc(-c2noc(=O)n2CC(=O)c2ccc(Cl)cc2)cc1
  -5%	-10%
NC(=O)COC(=O)c1cc(S(=O)(=O)N2CCN(c3ccccc3)CC2)ccc1Cl
  -2%	0%
C[C@]12c3[nH]c4ccc(Cl)cc4c3CCN1C(=O)[C@@H](CC(=O)NCc1ccco1)C[C@@H]2C(=O)N1CCCCC1
  ?	?
Cc1ccc(NC(=O)COC(=O)c2cccc3c2C(=O)c2ccccc2C3=O)c(C)c1
  -14%	-7%
CC(C)(C)NC(=O)C1(C)CCC(=O)N1C1CCN(Cc2ccccc2)CC1 (stereo not given)
  36%[activator]	0%
COc1ccccc1NC(=S)NCc1ccccn1
  -16%	0%
CC(=O)c1cc(-c2ccccc2)n(CCC(=O)Nc2ccc(C)cc2C)c1C
  -19%	-17%
O=C(CCCCCCCCCCCCC1CCCC1)Nc1ccc(S(=O)(=O)c2ccc(NC(=O)CCCCCCCCCCCCC3CCCC3)cc2)cc1
  i	-28%
COc1ccc(-c2noc(CSc3nc(-c4ccccc4)cc(=O)[nH]3)n2)cc1OC
  .	-13%
CCCSc1nc2c(c(=O)[nH]c(=O)n2C)n1CCc1ccccc1
  .	-17%
O=C(COC(=O)C1CCN(S(=O)(=O)c2ccc(Cl)c(C(F)(F)F)c2)CC1)NCc1ccco1
  -3%	-20%
COc1ccc(C(=O)NCc2oc(-c3ccccc3)cc2C(=O)O)cc1
  -22%[1.46 µM]	-5%
COc1ccc(CCNC(=O)C2CCCN(S(=O)(=O)c3cnc[nH]3)C2)cc1OC (stereo not given)
  11%	-5%
CCOC(=O)c1sc(NC(=S)NC(=O)C2CC2)cc1C
  ?	-23%
CC1CCc2cc(F)ccc2N1C(=O)CCC(=O)O (stereo not given)
  .	-14%
O=C(COC(=O)c1cccnc1Cl)NC12CC3CC(CC(C3)C1)C2
  i	-14%
CCOC(=O)c1n[nH]n2c1nc(=O)c1ccccc12
  0%	-15%
Cc1onc(-c2c(Cl)cccc2Cl)c1C(=O)N1CCN(Cc2ccccc2)CC1
  -8%	-16%
N#Cc1ccc(OCC(=O)Nc2ccncc2)cc1
  -20%	-20%
O=[N+]([O-])c1ccccc1S(=O)(=O)NCCSCc1ccco1
  -15%	-8%
COc1ccc(OCCCC(=O)NCC(C)C)cc1
  1%	-1%
O=C(NCc1ccccn1)c1cccc(NS(=O)(=O)c2ccccc2F)c1
  -3%	1%
COCCNC(=S)NCc1cccs1
  i	-16%
COc1ccc(OC)c(-n2c(-c3ccc(S(C)(=O)=O)cc3)cc(C=O)c2C)c1
  .	-20%
COc1cc(C(=O)NNC(=O)/C=C/c2ccccc2)cc(OC)c1OC
  i	-19%
COC(=O)c1cn(C(=O)c2ccccc2Cl)c2ccccc12
  -9%	-12%
CC(C)C[C@H](NC(=O)[C@@H]1CCCN1C(=O)[C@@H](N)Cc1ccc(O)cc1)C(=O)NCC(N)=O
  -12%	-9%

# Random excerpt: two records from the list, in no set order.
# Under each structure – VACV mCherry inh	VACV Venus inh
CCc1ccccc1NC(=O)Nc1c(C)n(C)n(-c2ccccc2)c1=O
  -4%	-6%&-7%
O=C(COC(=O)C1CCN(S(=O)(=O)c2ccc(Cl)c(C(F)(F)F)c2)CC1)NCc1ccco1
  -3%	-20%
